HCMV NEC inh = cytomegalovirus nuclear egress complex inhibition | AID 1918969 | HTRF UL50-UL53 interaction, normalized percent inhibition | 190,000 compounds, 0.15% hits | inhibition, % (concentration not given with the values);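 active = both replicates at 50% or more, plus weaker picks with an unusually low signal ratio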;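 note: stock transfer was 100 nL into about 20 µL; 0% = negative control wells and 100% = wells with untagged competitor protein; inactives centre near -12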
GIV-Gai inh = blocks GIV peptide binding to rat Galpha-i3; percent of control (FP), % (no concentration beside the values); 210,000 compounds, 0.42% hits; Galpha-i3/FITC-GIV peptide fluorescence polarization, 90 min; hits give low values; scaled: aluminum fluoride 0%, vehicle 100%; P08753;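 active = replicate mean at 85% of control or lower, very high polarization wells dropped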;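 note: wells of about 15 µL received 100 nL stock; the first replicate is given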
Target sequence (P08753 whole entry, looked up): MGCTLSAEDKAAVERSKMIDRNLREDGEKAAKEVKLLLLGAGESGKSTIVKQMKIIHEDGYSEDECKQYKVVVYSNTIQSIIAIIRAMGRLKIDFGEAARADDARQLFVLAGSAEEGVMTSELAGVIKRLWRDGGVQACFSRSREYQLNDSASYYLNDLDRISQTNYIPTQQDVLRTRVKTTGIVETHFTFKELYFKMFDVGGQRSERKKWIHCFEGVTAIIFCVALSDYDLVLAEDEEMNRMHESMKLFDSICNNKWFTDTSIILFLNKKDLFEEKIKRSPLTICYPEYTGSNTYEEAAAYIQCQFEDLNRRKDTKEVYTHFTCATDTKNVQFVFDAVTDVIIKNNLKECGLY
Sa growth inh = S. aureus growth inhibition; S. aureus RN4220 growth, OD600, 20 h, 42 °C; hits give low values; relative growth, % (concentration not given with the values); 170,000 compounds, 0.53% hits; AID 720641;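 active = growth at 42 °C up to 50% and 20 or more points under that at 30 °C, or under 10% at both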;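 note: 300 nL library stock went into each well; scaled to the means of positive and negative controls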
Sa growth inh second temp = further read-out of Sa growth inh, marked with its call; relative growth, %; measured here: growth at 30 °C;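 optical density after 20 h as mean of two plates; 100% = untreated growth and lower means inhibition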
Numbers without * were called inactive; nt = not tested or not shown; & = joins results of further samples.

SMILES	HCMV NEC inh	GIV-Gai inh	Sa growth inh	Sa growth inh second temp
CCc1c(O)nc2sc3cc(OC)ccc3n2c1=O	0	100	111	85
COCCN(Cc1ccc(C)c(Br)c1)S(=O)(=O)c1c[nH]c(C(=O)OC)c1	5	98	103	88
Cc1ccc(-c2nc(-c3ccccc3)no2)cc1	nt	109	105	79
CC(C)(C)N1CC(OC(=O)CCC(=O)O)C1	-10	nt	101	91
c1ccc(-c2nnc(OCC3CCCO3)c3ccccc23)cc1 (stereo unspecified)	nt	100	126	88
O=S(=O)(c1ccc(-c2cc(C(F)(F)F)no2)s1)N1CCCCC1	-24	101	105	86
CC(C)NC(=O)C1CCC(Cn2c(=O)c3sccc3n(Cc3ccc(F)cc3)c2=O)CC1 (stereo unspecified)	nt	102	87	94
O=C(CSc1nc2c(cnn2-c2ccc(F)cc2)c(=O)[nH]1)Nc1ccc(Br)cc1	-16	108	98	89
CC12CC3CC(C)(C1)CC(C(=O)N1CCCC1)(C3)C2	-11	105	98	103
CC(=O)c1ccc(N2CCN(C(=O)C3CCN(S(=O)(=O)c4ccc(Br)s4)CC3)CC2)cc1	2	103	102	103
CCn1nc(CC(=O)O)c2ccccc2c1=O	22	103	99	100
Cc1nc(-c2ccc(C)c(N3CCN(C(=O)Nc4ccc(Br)cc4)CC3)c2)no1	nt	101	88	86
c1ccc(-c2nc(CSc3nncn3-c3ccccc3)cs2)cc1	-32	nt	109	80
O=C(O)c1cc(S(=O)(=O)NCC2COc3ccccc3O2)ccc1Cl (stereo unspecified)	-6	nt	88	94
S=C(NCc1ccccc1Cl)NC12CC3CC(CC(C3)C1)C2	-46	105	49	49
CCOC(=O)C1=C(C)N=c2s/c(=C/c3ccc(OC(C)=O)c(OC)c3)c(=O)n2C1c1cccs1 (stereo unspecified)	-13	107	nt	nt
COc1cc(NC(=O)C(NS(=O)(=O)c2ccc3c(c2)oc(=O)n3C)C(C)C)cc(OC)c1 (stereo unspecified)	-22	102	81	82
COCCN1Cc2cccc(C(=O)Nc3ccc(S(=O)(=O)N4CCOCC4)cc3)c2C1=O	2	94	102	97
COc1ccc(-c2nc(CSc3nc(-c4cccnc4)cc(=O)[nH]3)c(C)o2)c(OC)c1	-10	112	nt	nt
CCOC(=O)C1CCN(c2nn3c(NC(C)(C)C)c(-c4ccc(F)cc4)nc3s2)CC1	-7	98	nt	nt
Cc1ccc(C(=O)CSc2nc(C)cc(C)c2C(N)=O)cc1	nt	116	89	65
COc1cccc(CNC(=O)CCC(=O)N2CC(C)Sc3ccccc32)c1 (stereo unspecified)	nt	101	89	93
CCCCN(C)S(=O)(=O)c1ccc(C(=O)Nc2sc3c(c2C(=O)OCC)CCN(C(C)C)C3)cc1	nt	140	109	96
CC(C)CN(CC(C)C)Cn1[nH]c(-c2cccs2)nc1=S	-29	nt	58	73

Two entries picked at random from those above:
SMILES	HCMV NEC inh	GIV-Gai inh	Sa growth inh	Sa growth inh second temp
S=C(NCc1ccccc1Cl)NC12CC3CC(CC(C3)C1)C2	-46	105	49	49
COc1ccc(-c2nc(CSc3nc(-c4cccnc4)cc(=O)[nH]3)c(C)o2)c(OC)c1	-10	112	nt	nt

Next part.
SMILES	HCMV NEC inh	GIV-Gai inh	Sa growth inh	Sa growth inh second temp
CCN(CC)c1nc(Nc2ccc([N+](=O)[O-])cc2)nc(N(CC)CC)n1	-17	104	nt	nt
O=C(COc1ccc(Cl)cc1)Nc1nnc(S(=O)(=O)N2CCCCCC2)s1	8	106	78	68
CC1CC(C)CN(C(=O)C(C)N(C)CC(=O)Nc2ccccc2Cl)C1 (stereo unspecified)	-9	nt	93	93
O=C(CSc1ncc(-c2ccccc2)[nH]1)Nc1cccc(O)c1	5	103	76	68
CCN1CCN(c2ccc(NC(=O)c3cccc4c3C(=O)N(Cc3cccnc3)C4)cc2)CC1	-25	99	90	84
CC(C)Cn1c(=O)c2sccc2n2c(CCCC(=O)NC3CCCCCC3)nnc12	nt	112	97	97
CC(C)(C)n1ncc2c(=O)n(CC(=O)c3ccc(Cl)cc3)cnc21	-24	106	90	89
Cc1n[nH]c(C)c1Sc1n[nH]c(=O)[nH]c1=O	-12	101	95	85
O=C(CSc1nnc(SCc2ccc(Cl)cc2)s1)N1CCc2ccccc2C1	nt	97	96	101
O=C(Nc1ccc2c(c1)OCO2)[C@H](Cc1ccccc1)N1Cc2ccccc2C1=O	-5	100	80	88
Cc1oc(-c2ccccc2F)nc1CS(=O)(=O)CC(=O)N1CCN(c2cccc(C(F)(F)F)c2)CC1	-36	99	96	88
O=C(OCCN1CCCCC1)C1COc2ccccc2O1 (stereo unspecified)	15	102	95	95
COc1ccc(N(CC(=O)N2CCN(c3cccc(C)c3C)CC2)S(=O)(=O)c2c(C)noc2C)cc1	-32	108	91	89
Cc1ccc(S(=O)(=O)N2CCc3cc(C(=O)Nc4c(C)cccc4C(C)C)ccc32)cc1	-38	102	101	95
CCOC(=O)c1ccccc1NC(=O)Cn1nnc2sc3c(c2c1=O)CCCC3	-25&-11	98&105	101	87
COc1cccc(C(=O)Nc2c(C(=O)NC(C)(C)C)oc3ccccc23)c1	nt	114	104	107
CCN1CCN(C(=O)c2ccccc2NS(C)(=O)=O)CC1	9	104	116	100
Cc1cc(C(=O)OCc2cc(Cl)cc3c2OCOC3)c(C)o1	-5	nt	95	94
CCOC(=O)c1cc(S(=O)(=O)N2CCCC2C(=O)Nc2ccc3c(c2)OCCO3)cn1C (stereo unspecified)	-24	103	nt	nt
COc1ccc2cc3cc(C(=O)NCc4ccccn4)oc3nc2c1	22	99	113	105
Cc1ccc(NS(=O)(=O)c2cc3[nH]c(=O)c(=O)[nH]c3cc2C)cc1Cl	nt	103	99	92
Cc1cccc(NC(=O)c2ccco2)n1	-9	108	101	92
Cc1ccsc1C(=O)OCC(=O)Nc1ccccc1	-32	nt	101	89
O=C(OCc1ccco1)c1ccc(-c2ccc(Cl)cc2)s1	10	107	123	99
CCOC(=O)c1c(NC(=O)C(C)(C)C)sc2c1CCCC2	-5	nt	89	94
O=c1c(-c2ccc(Cl)cc2)c(C(F)(F)F)oc2c(CN3CCOCC3)c(O)ccc12	-30	106	nt	nt
O=C(Cn1c(SCc2cccc(F)c2)nc2ccncc21)NCC1CCCO1 (stereo unspecified)	3	105	84	82
COc1ccc(CCNC(=O)Cn2cnc3c(cnn3-c3ccccc3)c2=O)cc1OC	1	104	105	82
Clc1ccc2[nH]c3nc4ccccc4nc3c2c1	-6	100	115	74
NC(=O)c1nnc(Cc2ccc(Cl)cc2)o1	-5	101	83	85
Cc1ccccc1NC(=O)Cn1c(=O)n(CCCCC(=O)NCc2ccccc2Cl)c(=O)c2ccccc21	-25	99	96	93
Cc1cccc(-c2noc(CNS(=O)(=O)c3ccccc3)n2)c1	-9	108	98	83
Cc1cc(C)c(Cn2c(C)c(CNCCCc3ccccc3)c(C(=O)O)c2C)c(C)c1	-1	102	115	96
Cc1cc(NCCN(C)C)n2nc(C)c(-c3ccccc3)c2n1	1	98	122	80
CCC(=O)Nc1nnc(S(=O)(=O)N2c3ccccc3CC2C)s1 (stereo unspecified)	-23	103	111	93
CC1CCN(C(=O)c2ccc3c(Cl)c4c(nc3c2)CCCC4)CC1	-28	96&101	108	90

Grouped by structure, those above with an NH in an aromatic ring.
SMILES	HCMV NEC inh	GIV-Gai inh	Sa growth inh	Sa growth inh second temp
COCCN(Cc1ccc(C)c(Br)c1)S(=O)(=O)c1c[nH]c(C(=O)OC)c1	5	98	103	88
O=C(CSc1nc2c(cnn2-c2ccc(F)cc2)c(=O)[nH]1)Nc1ccc(Br)cc1	-16	108	98	89
COc1ccc(-c2nc(CSc3nc(-c4cccnc4)cc(=O)[nH]3)c(C)o2)c(OC)c1	-10	112	nt	nt
CC(C)CN(CC(C)C)Cn1[nH]c(-c2cccs2)nc1=S	-29	nt	58	73
O=C(CSc1ncc(-c2ccccc2)[nH]1)Nc1cccc(O)c1	5	103	76	68
Cc1n[nH]c(C)c1Sc1n[nH]c(=O)[nH]c1=O	-12	101	95	85
Cc1ccc(NS(=O)(=O)c2cc3[nH]c(=O)c(=O)[nH]c3cc2C)cc1Cl	nt	103	99	92
Clc1ccc2[nH]c3nc4ccccc4nc3c2c1	-6	100	115	74

Remaining list, next part
SMILES	HCMV NEC inh	GIV-Gai inh	Sa growth inh	Sa growth inh second temp
COc1ccc(-c2noc(-c3ccc(NCc4ccco4)c([N+](=O)[O-])c3)n2)cc1OC	-35	102	91	69
COc1ccc(-c2nnc(SCc3cc(=O)n4ccsc4n3)o2)cc1	-51	94	nt	nt
COC(=O)c1sccc1NC(=O)CSc1ccccn1	-2	97	104	93
CCN1C(=O)c2c(C(=O)N3CCOCC3)ncn2CC1(C)C(=O)NC1CCCC1 (stereo unspecified)	-24	104	nt	nt
C/C(=N/NC(=O)CC1=NNC(=O)C1)c1ccc(Br)cc1	-11	96	113	79
CCCCn1cnc2c1c(=O)n(CC(=O)Nc1ccc(CC)cc1)c(=O)n2CCC	-28	nt	98	89
Cc1ccc(C)c(CNC(=O)c2ccc3c(c2)nc2n3CCC(C)C2)c1 (stereo unspecified)	nt	103	109	89
CC(Sc1ncn(-c2ccccc2)n1)C(=O)Nc1ccc(Cl)cc1 (stereo unspecified)	8	105	105	74
COC(=O)c1cc(S(=O)(=O)N2CCCC2C(=O)N2CCC(C)CC2)cn1C (stereo unspecified)	1	102	nt	nt
Cc1csc2c(N3CCN(C(=S)NCC4CC4)CC3)ncnc12	-14	102	88	76
COc1ccc(N2CCN(C(=O)c3cnc(N4CCOCC4)c4ccccc34)CC2)cc1	nt	107	87	116
O=C(COC(=O)c1n[nH]c(=O)c2ccccc12)NC1CCCCCC1	-10	nt	83	93
O=C1COc2ccc(-c3cc(-c4ccc(F)cc4)c4c(n3)-c3ccccc3OC4)cc2N1	10	105	92	92
CCC(C)NC(=O)c1cc(-c2ccccc2O)no1 (stereo unspecified)	nt	100	104	81
Cc1ccc2[nH]cc(CCNC3CC(=O)N(c4ccc(C)c(C)c4)C3=O)c2c1 (stereo unspecified)	-19	106	nt	nt
CCOC(=O)c1c(C)[nH]c(C)c1C(=O)COc1cc(C)nc(C(C)C)n1	-3	nt	116	93
C/C(=C\C(=O)c1ccc(C)o1)Nc1ccc(Nc2ccccc2)cc1	0	117	98	99
CCC(CC)C(=O)N1c2ccccc2Sc2ccccc21	nt	109	108	92
COC(=O)c1ccc(COC(=O)c2cccc(C#N)c2)o1	7	nt	105	92
c1csc(-c2nc(NCCCN3CCOCC3)c3ccccc3n2)c1	-29	nt	79	76
CC(Sc1nc2ccc(C(=O)c3ccccc3)cc2[nH]1)C(=O)O (stereo unspecified)	nt	103	100	80
O=C(/C=C/c1c(Cl)nc2sccn12)OCc1cc(=O)n2c3c(sc2n1)CCCC3	-8	nt	105	76
Cc1ccc(C(=O)Nc2ccc3oc(-c4ccncc4)nc3c2)c(Cl)c1	-26	104	105	79
Cc1ccc(-c2nnc(Nc3cccc(O)c3)c3ccccc23)cc1S(=O)(=O)NCC1CCCO1 (stereo unspecified)	-21	106	96	50

In the list so far, these contain a nitro group on carbon:
SMILES	HCMV NEC inh	GIV-Gai inh	Sa growth inh	Sa growth inh second temp
CCN(CC)c1nc(Nc2ccc([N+](=O)[O-])cc2)nc(N(CC)CC)n1	-17	104	nt	nt
COc1ccc(-c2noc(-c3ccc(NCc4ccco4)c([N+](=O)[O-])c3)n2)cc1OC	-35	102	91	69

Other structures:
SMILES	HCMV NEC inh	GIV-Gai inh	Sa growth inh	Sa growth inh second temp
CC1=C(C#N)C2C(/C1=N/O)C2(C)C (stereo unspecified)	-51	94	97	102
O=S(=O)(c1cccc2nsnc12)N(CCOc1cccc2ccccc12)C1CCCCC1	4	106	nt	nt
CCN1CCN(CCC(=O)Nc2ccc(C)cc2)CC1	-17	99	73	91
CC1Sc2ccc(S(=O)(=O)N3CCC(C(=O)Nc4cccnc4)CC3)cc2NC1=O (stereo unspecified)	9	118	nt	nt
CC(=O)Nc1c(N)c2ccccc2oc1=O	nt	104	74	85
Cc1ccc2oc(=O)c3cnn(CC(=O)N(CCC(C)C)Cc4ccco4)c3c2c1	1	101	76	90
Cc1ccc2c(CNC3CCC(C)CC3)c(C(=O)O)n(Cc3cccc(F)c3)c2c1 (stereo unspecified)	nt	109	84	90
Cc1cccc(NC(=O)Cn2c(CNC(=O)c3ccccc3)nc3ccccc32)c1	-3	nt	95	98
O=c1c2sc(=S)n(Cc3ccco3)c2nc(SCc2ccccc2)n1-c1ccccc1	nt	106	110	83
CCOC(=O)c1c(C)[nH]c(C)c1C(=O)CSc1cccc[n+]1[O-]	-33	nt	102	84
O=C(Cc1csc(N2CCOCC2)n1)N/N=C/c1cccc(O)c1	-28	nt	99	96
Cc1c2c(nc3c(C(=O)NC4CCCCCCC4)cnn13)CCCC2	-1	113	101	97
CCn1c(O)c(N=NC(=O)c2ccc(C)nc2)c2ccccc21	-112	103	87	79
CCNC(=O)c1[nH]nc2c1CCc1cc(OC)ccc1-2	-22	98	nt	nt
Cc1c(CCC(=O)N2CCOCC2)c(=O)oc2c(C)c(O)ccc12	-11	105	111	87
O=C(O)C1CCCN(c2ncccn2)C1 (stereo unspecified)	-8	101	nt	nt
O=S(=O)(c1ccc(F)cc1)N1CCN(Cc2ccc3nccnc3c2)CC1	-57	103	nt	nt
CC(C(=O)NCC1CCCCC1)N1CCN(S(=O)(=O)/C=C/c2ccccc2)CC1 (stereo unspecified)	-9	nt	120	107
CC1(C)Cc2ccccc2C(CSc2ccccc2C(=O)O)=N1	-20	100	90	82
CCOc1ccc2oc(C)c(C(=O)Nc3cc(OC)c(OC)cc3C(=O)OC)c2c1	6	106	nt	nt
CCC(=O)c1cc2cc(Cl)cc(Cl)c2oc1=O	-51	100	98	87

Screening data deposited in PubChem BioAssay by ICCB-Longwood Screening Facility, Harvard Medical School.
